Compound activity from PubChem.
BJeLR viability: lowers viability of BJeLR cells; BJeLR fibroblasts viability, CellTiterGlo ATP luminescence, 48 h; HRASV12, hTERT and SV40 LT/ST transformed; viability loss activity score, % (concentration not given with the values); 0.64% of 30,000 active; AID 2275; in the data active = viability loss activity score above about 50%; about a fifth of its hits are not listed in these tables;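 also: higher score means fewer live cells and less ATP luminescence; stock transfer was 50 or 100 nL into about 30 µL; 0% = vehicle wells and 100% = a reference killing control; one replicate is shown; the record names a cut of 85%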
A1 inhib: inhibitors of A1; MEF A1-2A-BIM cells, caspase-Glo luminescence, 3 h; percent of clofoctol signal, DMSO as zero; caspase activation, % (test concentration not listed); 0.51% of 21,000 active; AID 2241;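 active = most replicate scores above 10, or exactly half above 10 with mean activity above 10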;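 also: effector caspase 3 and 7 activity cleaving a DEVD luciferin substrate; 50 nL library stock added to about 30 µL; numbers are from one replicate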
Starred values were filed as active, the others as inactive; · = no result given. Only part of the results is shown, so the mix of outcomes need not match the whole.

SMILES	BJeLR viability	A1 inhib
COc1ccc(S(=O)(=O)Nc2ccccc2C(=O)NCc2ccco2)cc1	-3.5	·
CCOC(=O)c1cc(C(=O)OC)c(C)nc1N1CCCN(Cc2ccc(F)cc2)CC1	3.2	·
C[C@H]1CN([C@@H](C)CO)C(=O)c2cc(NC(=O)Cc3ccccc3)ccc2O[C@@H]1CN(C)Cc1ccc(Cl)c(Cl)c1	-8.8	-0.1
COc1ccc(CC(=O)Nc2ccc(-c3cnco3)cc2)cc1OC	1.3	0.3
C[C@@H]1CN([C@@H](C)CO)C(=O)c2cccc(NS(=O)(=O)c3ccc(F)cc3)c2O[C@@H]1CN(C)Cc1ccc(Oc2ccccc2)cc1	-5.0	·
C[C@H](CO)N1C[C@H](C)[C@@H](CN(C)S(C)(=O)=O)Oc2ccc(NC(=O)Cc3cn(C)c4ccccc34)cc2C1=O	-14.6	-0.1
O=C1c2ccccc2C(O)(c2ncc[nH]2)N1CCc1ccccc1 (stereo not given)	-1.6	-0.6
CC(Oc1ccc(Cl)cc1Cl)/C(N)=N/O (stereo not given)	5.6	0.7
CCc1ccccc1NC(=O)C(C(C)C)N1C(=O)c2ccccc2C1=O (stereo not given)	2.8	-0.2
C[C@H]1CN([C@@H](C)CO)C(=O)c2cccc(N(C)C)c2O[C@H]1CN(C)S(C)(=O)=O	7.1	·
Cc1cc(C)c2c(n1)sc1c(SCc3ccccc3)nc(C)nc12	-3.1	0.7
O=C(CCCCCN1C(=O)c2cccc3cccc(c23)C1=O)NO	113.9*	-0.5
CCCOC(=O)c1[nH]c2c(c1C)C(=O)CCC2	3.4	·
C[C@H]1CN([C@@H](C)CO)C(=O)c2cc(NS(C)(=O)=O)ccc2O[C@H]1CN(C)Cc1ccccc1	5.6	0.0
C[C@H]1CN([C@@H](C)CO)C(=O)c2cc(NS(=O)(=O)c3ccccc3)ccc2O[C@@H]1CN(C)C	3.9	1.0
Cc1ccc(Cn2nnc3c(=O)n(Cc4ccc(C(F)(F)F)cc4)cnc32)cc1	1.0	0.6
Cc1noc(C)c1S(=O)(=O)Nc1ccc2c(c1)C(=O)N([C@H](C)CO)C[C@H](C)[C@@H](CN(C)S(=O)(=O)c1cn(C)cn1)O2	-0.7	-0.8
CNC[C@H]1Oc2ccc(NC(=O)NC(C)C)cc2C(=O)N([C@H](C)CO)C[C@H]1C	-1.3	-0.3
COc1ccc(N(C)C(=O)c2cnc(N3CCN(c4ncccn4)CC3)c3ccccc23)cc1	-1.2	·
COc1cc(NC(=O)CC(C)(C)C)c(OC)cc1Cl	2.2	-0.7
COc1ccc(N=Cc2c(O)ccc3oc4c(c23)CCCC4)cc1	0.2	0.2
O=S(=O)(NCCCn1ccnc1)c1cc(Cl)ccc1Cl	0.7	0.8
CCc1ccc(Oc2coc3cc(OC(=O)C4CCCCC4)ccc3c2=O)cc1	0.7	·
C[C@@H]1CN([C@@H](C)CO)C(=O)c2cccc(NC(=O)c3cnccn3)c2O[C@H]1CN(C)CC1CCCCC1	-2.0	·
C[C@@H]1O[C@@H](O[C@H]2[C@@H]3C=CO[C@@H](O[C@@H]4O[C@H](CO)[C@@H](O)[C@H](O)[C@H]4O)[C@@H]3[C@@]3(CO)O[C@@H]23)[C@H](OC(=O)/C=C/c2ccccc2)[C@H](OC(=O)/C=C/c2ccccc2)[C@H]1O	0.3	0.7
SMILES	BJeLR viability	A1 inhib
O=C1C(SCCO)=C(SCCO)C(=O)c2ccccc21	116.7*	-4.2
C[C@H]1CN([C@@H](C)CO)C(=O)c2cccc(NS(=O)(=O)c3ccccc3)c2O[C@@H]1CN(C)S(=O)(=O)c1ccc(F)cc1	1.5	·
Cc1csc(NC(=O)NC(C)(C)C)n1	4.3	0.6
Cc1cc(C)n2c(Nc3cccc(C(F)(F)F)c3)c(-c3ccc(O)cc3)nc2n1	8.0	·
COc1ccc(S(=O)(=O)N(C)C[C@@H]2Oc3ccc(N(C)C)cc3C(=O)N([C@H](C)CO)C[C@@H]2C)cc1	1.9	0.1
C[C@@H]1CN([C@@H](C)CO)C(=O)c2cccc(NC(=O)C3CC3)c2O[C@H]1CN(C)Cc1ccccc1	-3.2	·
COc1ccc(NC(=O)Nc2ccc3c(c2)C(=O)N([C@H](C)CO)C[C@@H](C)[C@H](CN(C)C(=O)Nc2ccc(F)cc2)O3)cc1	-0.3	-0.5
O=C(c1ccccc1)c1cnn(-c2ccc(Cl)cc2)n1	14.6	-3.2
CC1Cc2cc(S(=O)(=O)N(C)CC(=O)NCc3ccccc3)ccc2N1C(=O)C1CC1 (stereo not given)	2.4	0.0
COc1ccc(CC(N)C(=O)N[C@H]2[C@@H](O)[C@H](n3cnc4c(N(C)C)ncnc43)O[C@@H]2CO)cc1 (stereo not given in full)	19.0	58.0*
C[C@H](CO)N1C[C@H](C)[C@@H](CN(C)Cc2ccccc2)Oc2c(NS(=O)(=O)c3ccccc3)cccc2C1=O	1.1	·
CCCc1c(C(=O)OCC)[nH]c2c1C(=O)CC(c1ccccc1)C2 (stereo not given)	2.8	·
CN(C)C(=O)Oc1nnc(SCC(=O)c2ccc3c(c2)OCCO3)n1C1Cc2ccccc2C1	-1.8	-0.3
CCOC(=O)Cn1c(=O)c2cnc3c(c(C)nn3C)c2n1C	-3.1	0.5
O=C(NC1CCCCC1)N1CCCCCCC1	0.9	1.0
CCN1C(C(=O)c2ccccc2)C(=O)c2ccccc2S1(=O)=O (stereo not given)	-3.1	-0.2
Cc1cc(N)n(-c2ncnc3sc4c(c23)CCCC4)n1	-6.0	-0.1
C=CCn1c2ccccc2c2nn(C)c(=S)nc21	-1.6	-0.4
CCOc1cccc2cc(-c3nc4ccccc4s3)c(=O)oc12	2.8	-4.1
Cc1ccc2c(c1)C(c1ccccc1)CC(C)N2S(=O)(=O)c1cccc(Cl)c1 (stereo not given)	-4.9	0.6
C=CCn1c(=O)c2ccc(C(=O)NCc3ccccc3)cc2n(CC(=O)n2nc(N)cc2C)c1=O	-3.6	·
C[C@@H]1CN([C@@H](C)CO)C(=O)c2cc(NS(=O)(=O)c3cccs3)ccc2O[C@@H]1CN(C)CC1CCCCC1	3.0	-0.7
O=C(NCCc1c[nH]c2ccccc12)Nc1ccccc1	-6.7	0.0
C[C@@H]1CN([C@@H](C)CO)C(=O)c2cccc(NC(=O)c3ccncc3)c2O[C@H]1CN(C)C	1.3	·
O=C(Nc1nc(-c2ccccc2)nc2c1C(=O)CCC2)c1ccccc1	-5.5	-1.1

One compound at a time (already shown).
CN(C)C(=O)Oc1nnc(SCC(=O)c2ccc3c(c2)OCCO3)n1C1Cc2ccccc2C1 is listed with BJeLR viability = -1.8; A1 inhib = -0.3
CCc1ccccc1NC(=O)C(C(C)C)N1C(=O)c2ccccc2C1=O (stereo not given) is listed with BJeLR viability = 2.8; A1 inhib = -0.2

Next part.
SMILES	BJeLR viability	A1 inhib
Cc1noc(C)c1NC(=O)Nc1cccc2c1O[C@H](CN(C)Cc1ccc(C(=O)O)cc1)[C@H](C)CN([C@@H](C)CO)C2=O	1.9	·
O=C(O)CCn1c(SCCOc2ccccc2)nc2ccccc21	-2.2	-0.2
CC1(C)Cc2ccccc2C(C(Cc2ccccc2)C(N)=O)=N1 (stereo not given)	4.2	0.4
O=C1c2cc(O)cc(O)c2C(=O)c2c1cc(O)c(C(CO)CCO)c2O (stereo not given)	6.7	-5.2
Cc1ccc2cc3c(nc2c1)N(c1ccc(C(=O)NCc2ccco2)cc1)CC3	3.7	1.1
CC(=O)OC[C@H]1O[C@@H](Oc2cc(OC(C)=O)c3c(=O)cc(-c4ccc(OC(C)=O)cc4)oc3c2)[C@H](OC(C)=O)[C@@H](OC(C)=O)[C@@H]1OC(C)=O	-15.9	-0.8
C[C@@H]1CN([C@@H](C)CO)C(=O)c2cccc(NC(=O)Nc3cccc4ccccc34)c2O[C@H]1CN(C)C(=O)NC1CCCCC1	-3.8	·
O=C(O)CCN1C(=O)/C(=C/c2ccc(-c3ccc(Cl)cc3Cl)o2)SC1=S	6.4	1.6
CC1=C(C#N)C(C(F)(F)F)(C(F)(F)F)N=C(C2CCCCC2)N1	0.4	-0.6
C[C@@H]1CN([C@H](C)CO)C(=O)c2cccc(NC(=O)c3cnccn3)c2O[C@H]1CN(C)Cc1ccccc1	2.2	·
Cc1cc2ncn(CCC3CCCCC3)c2cc1C	1.1	1.1
CC(C)NC(=O)N(C)C[C@@H]1Oc2ccc(NC(=O)Nc3ccc(C(F)(F)F)cc3)cc2C(=O)N([C@@H](C)CO)C[C@@H]1C	-5.9	-0.1
CNC[C@H]1Oc2ccc(NS(=O)(=O)c3ccccc3)cc2C(=O)N([C@H](C)CO)C[C@H]1C	-0.2	-1.0
Cc1cc(C(=O)Nc2cccc3c2O[C@H](CN(C)C(=O)Nc2ccc(C(F)(F)F)cc2)[C@H](C)CN([C@H](C)CO)C3=O)n(C)n1	3.1	·
C[C@H](CO)N1C[C@H](C)[C@H](CN(C)Cc2ccc(Cl)c(Cl)c2)Oc2ccc(NS(=O)(=O)c3cccs3)cc2C1=O	-2.5	-0.3
CC1=COC=C(C=NCc2ccccc2)N1c1ccccc1	-5.0	0.1
CSc1nncc(-c2ccc(Cl)cc2)n1	-5.5	-3.4
C[C@@H]1CN([C@@H](C)CO)C(=O)c2cc(NC(=O)Nc3ccc(C(F)(F)F)cc3)ccc2O[C@@H]1CN(C)CC1CCCCC1	11.2	0.6
CC1(C)CC(=O)C=C(NCCCn2ccnc2)C1	-1.9	0.0
Cn1nc(-c2ccc(Cl)cc2)c2cc(C(=O)N3CCCC3)sc21	7.4	·
COc1cc2nc(-c3ccc4c(c3)C(=O)N(CC(C)C)C4=O)oc(=O)c2cc1OC	0.5	0.3
CC1(C)N=C(c2ccccc2)C(=S)N1C(=O)c1ccccc1	-1.3	·
CCc1cccc(NS(=O)(=O)c2cc(Br)cc3c2N(C(=O)C2CC2)CC3)c1	5.9	·
N#Cc1ccc2nc(C(O)C(O)c3nc4ccc(C#N)cc4[nH]3)[nH]c2c1 (stereo not given)	1.2	1.5
O=C(O)c1cccnc1C(=O)N1CCc2c([nH]c3ccccc23)C1C(F)(F)F (stereo not given)	4.1	0.5

The final 7 entries of the section above are carried over, then new ones follow:
SMILES	BJeLR viability	A1 inhib
CC1(C)CC(=O)C=C(NCCCn2ccnc2)C1	-1.9	0.0
Cn1nc(-c2ccc(Cl)cc2)c2cc(C(=O)N3CCCC3)sc21	7.4	·
COc1cc2nc(-c3ccc4c(c3)C(=O)N(CC(C)C)C4=O)oc(=O)c2cc1OC	0.5	0.3
CC1(C)N=C(c2ccccc2)C(=S)N1C(=O)c1ccccc1	-1.3	·
CCc1cccc(NS(=O)(=O)c2cc(Br)cc3c2N(C(=O)C2CC2)CC3)c1	5.9	·
N#Cc1ccc2nc(C(O)C(O)c3nc4ccc(C#N)cc4[nH]3)[nH]c2c1 (stereo not given)	1.2	1.5
O=C(O)c1cccnc1C(=O)N1CCc2c([nH]c3ccccc23)C1C(F)(F)F (stereo not given)	4.1	0.5
CN(C(=O)c1cn(C)c(=O)cc1C(F)(F)F)c1ccc(Cl)c(Cl)c1	1.9	-0.2
C[C@@H]1CN([C@@H](C)CO)C(=O)c2cccc(NC(=O)C3CCOCC3)c2O[C@H]1CN(C)Cc1ccc(Cl)c(Cl)c1	1.1	·
Cc1cc(-c2ccco2)n(CC(=O)NCc2ccccc2Cl)n1	-0.4	-0.1
COc1ccc(CN(C)C[C@@H]2Oc3ccc(NC(=O)Nc4ccc(F)cc4)cc3C(=O)N([C@H](C)CO)C[C@@H]2C)cc1	-4.3	-1.1
Cc1ccc(S(=O)(=O)Nc2ccc3c(c2)C(=O)N([C@@H](C)CO)C[C@@H](C)[C@H](CN(C)C(=O)Nc2ccccc2)O3)cc1	2.6	0.4
CN(C)c1ccc(/C=C2/C(=N)N3N=C(COc4ccccc4)SC3=NC2=O)cc1	-4.4	0.2
COc1ccc(S(=O)(=O)Nc2ccc3c(c2)C(=O)N([C@H](C)CO)C[C@H](C)[C@H](CN(C)C(=O)Nc2ccc4c(c2)OCO4)O3)cc1	0.4	0.5
CNC[C@H]1Oc2c(NS(=O)(=O)c3ccc(F)cc3)cccc2C(=O)N([C@H](C)CO)C[C@@H]1C	1.6	·
COC(=O)C1=NNC2(C)C(=O)N(c3ccccc3)C(=O)C12 (stereo not given)	-5.5	0.1
CNC(=O)CSc1cn(CC(=O)N2CCC(C)CC2)c2ccccc12	3.8	0.4
C[C@H]1CN([C@@H](C)CO)C(=O)c2cc(NC(=O)c3ccncc3)ccc2O[C@@H]1CN(C)C(=O)Nc1ccccc1	-3.9	-0.3
COc1ccc2cc(C(C)C(=O)Nc3cc(Cl)cc(Cl)c3)ccc2c1 (stereo not given)	-0.1	0.7
C[C@H](CO)N1C[C@H](C)[C@H](CN(C)C(=O)Nc2cccc3ccccc23)Oc2c(NC(=O)c3ccncc3)cccc2C1=O	-2.6	·
COc1ccc(CCNC(=O)C2CCCCC2)cc1OC	1.6	1.0
C[C@@H]1CN([C@@H](C)CO)C(=O)c2cccc(NC(=O)Nc3ccc(F)cc3)c2O[C@H]1CN(C)Cc1ccc(-c2ccccc2)cc1	0.9	·
CC(C)NC(=O)Nc1ccc2c(c1)C(=O)N([C@@H](C)CO)C[C@H](C)[C@H](CN(C)C(=O)NC1CCCCC1)O2	6.6	-0.1
CCc1ccc(NC(=O)N(Cc2cccnc2)Cc2ccco2)cc1	-0.8	0.1
Cc1ccc(-c2ccc(CCC(=O)O)o2)cc1	0.0	·

A different layout for 2 compounds above.
| canonical_smiles | BJeLR viability | A1 inhib |
| --- | --- | --- |
| CNC[C@H]1Oc2c(NS(=O)(=O)c3ccc(F)cc3)cccc2C(=O)N([C@H](C)CO)C[C@@H]1C | 1.6 | · |
| CN(C)c1ccc(/C=C2/C(=N)N3N=C(COc4ccccc4)SC3=NC2=O)cc1 | -4.4 | 0.2 |
